Screening results deposited in PubChem by several laboratories.
Vif A3G: inhibitors of Vif binding to APOBEC3G peptide, primary screen, biochemical, TR-FRET, GST-Vif 1-94, biotin-A3G peptide, dose response retest (AID 1117319). TR-FRET GST-Vif / biotin-A3G peptide binding; higher % means a stronger effect; test concentration not given here; strong numbers were not always called active. 260,000 tested, 0.57% active. one-dose inhibition, %; IC50 in µM for titrated hits;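 active = above the screen mean plus three standard deviations and confirmed in dose response; inconclusive = results disagree or hit not tested in dose response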;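 note: Vif residues 1-94 fused to GST binding biotinylated APOBEC3G peptide 110-148; 0% = full assay without inhibitor and 100% = GST in place of GST-Vif; retest series ran down from 100 µM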
Calb FLC: affects C. albicans growth with fluconazole. C. albicans CaCi-2 (fluconazole-resistant clinical isolate) + fluconazole, Alamar Blue growth, 48 h. growth inhibition, % (no concentration beside the values). 300,000 tested, 0.57% active;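 active = most replicates above 75%; inconclusive = exactly half above 75%; inactive = most below 75%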;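 note: all wells also contain fluconazole at 8 µg/ml as a sub-toxic cotreatment; 0% = median of DMSO wells and 100% = median of geldanamycin control wells; wells of about 8 µL received 7.5 nL stock; the first replicate is given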
T cruzi inh: blocks replication of Trypanosoma cruzi | T. cruzi beta-gal in NIH3T3, luminescence, 90 h | inhibition, % (test concentration not listed) | 300,000 tested, 1.4% active | AID 1885;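 active = mean inhibition across valid replicates above about 55%, limit read from the data; inconclusive = mean below that limit but half or more replicates reach it; inactive = mean below it, under half of replicates reach it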;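 note: signal also drops with host cell toxicity which is not excluded here; 0% = plate median of DMSO wells and 100% = zero luminescence signal; higher percent means less beta-gal luminescence so fewer parasites; stock transfer was 50 nL into about 50 µL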
MLL AF4-AF9 inh: inhibitors of human MLL-AF4/AF9 interaction. AlphaScreen, biotin-AF4 peptide binding to FLAG-AF9. AID 651704. 350,000 tested, 0.47% active. P42568. inhibition, % at 10 µM;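 active = every replicate reaching a set inhibition limit, whatever the replicate mean, cut at about 25% in these data; inconclusive = mean inhibition reaches that limit but some replicates miss it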;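 note: 0% = plate neutral control median and 100% = total signal loss; the record names both 10 and 1 µM as test concentration; the first replicate is given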
Beta apoptosis: blocks beta cell apoptosis. 300,000 tested, 0.8% active. INS-1E cytokine-induced death, ATP luminescence, 48 h; percent of positive-control rescue, neutral wells zero. AID 435005. protection from apoptosis, % (test concentration not listed);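 active = all replicates at 75% or more, or half of them and the mean; inconclusive = half reach 75% but not the mean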;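 note: 0% = cytokine-treated negative control wells and 100% = positive control rescue; higher means more ATP so stronger rescue from cytokine killing; wells of about 40 µL received 100 nL stock; the first replicate is given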
LANA-H2A inh: blocks KSHV LANA binding to histone H2A/H2B. Q9QR71. cell-free LANA-H2A/H2B peptide, fluorescence polarization. inhibition, % (no concentration beside the values). 320,000 tested, 0.6% active; in the data active = inhibition mostly above about 10%, no sharp cut-off; inactive = mostly below about 6.7%;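 note: stock transfer was 7.5 nL into about 10 µL; 0% = median of vehicle wells and 100% = median of positive control wells; one replicate is shown; the record names a cut of 25% in any replicate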
Target sequence (Q9QR71 whole entry, looked up): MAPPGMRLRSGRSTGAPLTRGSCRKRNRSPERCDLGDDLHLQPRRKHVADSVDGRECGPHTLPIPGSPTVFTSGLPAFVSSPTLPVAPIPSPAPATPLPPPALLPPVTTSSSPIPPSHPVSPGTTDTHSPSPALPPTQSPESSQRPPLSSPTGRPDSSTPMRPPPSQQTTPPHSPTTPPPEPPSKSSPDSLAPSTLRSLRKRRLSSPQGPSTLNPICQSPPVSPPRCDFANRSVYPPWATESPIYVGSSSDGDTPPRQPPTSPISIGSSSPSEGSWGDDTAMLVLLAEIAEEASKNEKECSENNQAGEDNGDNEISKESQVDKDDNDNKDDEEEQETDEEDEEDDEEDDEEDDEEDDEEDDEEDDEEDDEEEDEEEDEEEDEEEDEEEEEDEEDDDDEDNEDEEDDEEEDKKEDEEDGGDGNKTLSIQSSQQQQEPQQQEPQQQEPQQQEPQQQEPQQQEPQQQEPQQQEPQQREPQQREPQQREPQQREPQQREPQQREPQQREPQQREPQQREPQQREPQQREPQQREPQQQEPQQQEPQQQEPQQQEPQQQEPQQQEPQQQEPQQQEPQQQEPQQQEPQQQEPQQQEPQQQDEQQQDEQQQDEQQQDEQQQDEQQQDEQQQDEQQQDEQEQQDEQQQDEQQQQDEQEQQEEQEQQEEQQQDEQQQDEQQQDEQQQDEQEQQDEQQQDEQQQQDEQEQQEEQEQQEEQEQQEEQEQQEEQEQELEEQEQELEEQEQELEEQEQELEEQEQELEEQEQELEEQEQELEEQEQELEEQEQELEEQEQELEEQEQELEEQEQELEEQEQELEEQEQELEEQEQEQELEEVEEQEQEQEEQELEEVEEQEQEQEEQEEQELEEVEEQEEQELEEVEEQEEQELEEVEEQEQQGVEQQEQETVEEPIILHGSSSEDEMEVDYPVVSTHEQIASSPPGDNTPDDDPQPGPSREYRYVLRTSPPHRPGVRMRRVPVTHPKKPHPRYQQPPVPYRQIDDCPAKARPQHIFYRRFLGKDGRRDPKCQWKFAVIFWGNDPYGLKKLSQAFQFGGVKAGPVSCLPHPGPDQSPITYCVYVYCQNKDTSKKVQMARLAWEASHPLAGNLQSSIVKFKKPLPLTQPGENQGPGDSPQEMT
RanGTP-Impb inh: inhibitors of RanGTP-importin-beta interaction, primary screen, biochemical, FRET, CFP-Ran, YFP-importin-beta, homogeneous; cell-free CFP-Ran/YFP-importin-beta FRET ratio; inhibition, % (test concentration not listed); AID 2216; 300,000 tested, 1.1% active;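 active = most replicates above 15%; inconclusive = exactly half above 15%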;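 note: 0% = DMSO wells and 100% = Ran loaded with GDP instead of GTP; wells of about 40 µL received 100 nL stock; the first replicate is given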
Bfl-1 A1 inh: inhibitors of the anti-apoptotic protein A1, read as caspase activation | 330,000 tested, 0.066% active | MEF A1-2A-BIM cells, Caspase-Glo 3/7 luminescence, 3 h; percent of clofoctol response, vehicle zero | caspase activation, % (no concentration beside the values);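 active = over half of replicate activation scores above 10%, or exactly half above 10 with the replicate mean above 10; inconclusive = replicate mean below 10 yet half the replicates above 10; inactive = over half of replicates below 10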;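 note: wells of about 30 µL received 50 nL stock; many hits fall short of the cut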
* = called active by the depositor; ? = inconclusive; nt = no result given.

SMILES	Vif A3G	Calb FLC	T cruzi inh	MLL AF4-AF9 inh	Beta apoptosis	LANA-H2A inh	RanGTP-Impb inh	Bfl-1 A1 inh
COc1cccc(C2c3c(oc4ccc(F)cc4c3=O)C(=O)N2CCN2CCOCC2)c1OC (stereo not drawn)	?	-3	-8	-1.0	0	2.1	?	0.6
Fc1ccccc1N1CCN(c2nc3ccccc3n3nnnc23)CC1	-13%	7	3	nt	-2	0.9	17*	1.1
COc1cc(/C=N/NC(=O)c2cc(-c3cccn3C)n[nH]2)cc(OC)c1OC	1%	-16	5	nt	35	-1.3	-2.5	0.3
O=c1c2[nH]c3ccc(Cl)cc3c2ncn1CCN1CCCCC1	5%	?	15	nt	0	-2.9	-2.1	0.5
Cn1c(SCC(=O)Nc2ccccc2F)nnc1-c1cccnc1	2%	13	-2	-3.4	-2	6.0	2.0	-0.2
Cn1c(/C(C#N)=C/c2ccc(O)cc2)nc2ccccc21	nt	1	-2	6.8	-2	-5.4	28*	-3.5
O=C(NNC(=O)c1cccs1)Nc1cccc(Cl)c1	28%	-3	-6	nt	nt	0.9	-2.1	-1.0
CC1(C(=O)Nc2ccc(S(=O)(=O)Nc3ncccn3)cc2)CCCC1	0%	nt	nt	-3.6	-1	-0.4	nt	0.2
CC(C)(C)c1nc(Sc2ccc([N+](=O)[O-])cn2)n[nH]1	-6%	-10	-10	2.3	-9	1.6	2.0	0.2
Cc1nn(S(=O)(=O)c2ccc([N+](=O)[O-])cc2)c(C)c1Sc1ccccc1	-1%	1	64*	nt	3	3.4	3.6	0.4
COc1ccc(Nc2nnc(SCC(=O)Nc3ccc4[nH]c(=O)[nH]c4c3)s2)cc1	3%	-2	0	-1.6	7	-3.1	4.0	-0.1
O=C1NC(Cc2ccccc2)C(=O)N1Cc1cc([N+](=O)[O-])cc2c1OCOC2 (stereo not drawn)	8%	0	6	-0.2	-1	-5.1	-0.5	0.2
Cc1ccc(NC(=O)CCSc2ccccn2)cc1	-5%	-15	-1	3.2	6	-0.3	-0.1	-0.7
CC(=O)N1CCN(S(=O)(=O)c2cccc(C(=O)NC3CCC(C)CC3)c2)CC1 (stereo not drawn)	5%	26	-6	0.5	-3	-5.6	-2.0	0.9
Cc1ccc(NC(=O)CSc2nc(O)cc(=O)n2-c2ccc(C)cc2)cc1	nt	18	-3	-0.9	2	-0.3	-2.7	-1.6
CC(=O)Nc1cccc(C(=O)OCCCOc2ccc(F)cc2)c1	nt	-10	1	0.6	-1	-3.9	7.0	0.9
N/C(=N/OC(=O)c1ccc(Cl)cc1)c1ncc([N+](=O)[O-])s1	18%	-2	19	-0.3	-40	5.2	-2.2	0.6
O=C(O)c1cccc2c1/C(=N/O)c1ccccc1-2	nt	4	-17	1.9	nt	2.7	1.6	0.8
COc1ccccc1NC(=O)COc1ccc2c(c1)OCO2	nt	6	4	3.6	0	-0.2	-5.4	0.0
Cc1cccc(C)c1NC(=O)c1ccc(-n2cncn2)nc1	2%	-4	11	nt	-4	-9.6	-3.7	0.2
COc1ccc(C2CC(C(F)(F)F)n3ncc(C(=O)Nc4c(C)n(C)n(-c5ccccc5)c4=O)c3N2)cc1 (stereo not drawn)	3%	14	-5	nt	1	2.2	7.4	0.1
O=C(NCCO)Nc1ccc(Cl)cc1	16%	-4	5	-4.0	-9	-94	-2.3	0.7
Cc1ccc(S(=O)(=O)NNC(=O)c2csnn2)cc1	1%	1	-1	-6.0	nt	-0.3	5.9	0.2
CCn1cc(/C=N\NC(=O)Cc2ccc(Cl)cc2)cn1	-2%	12	6	nt	-5	-8.1	1.3	0.0
CCCCn1c(N)c(N(CCOC)C(=O)c2nn(CC)c(=O)c3ccccc23)c(=O)[nH]c1=O	7%	-6	-12	-1.1	3	0.6	12	0.4

Next entries
SMILES	Vif A3G	Calb FLC	T cruzi inh	MLL AF4-AF9 inh	Beta apoptosis	LANA-H2A inh	RanGTP-Impb inh	Bfl-1 A1 inh
Cc1cccc(NC(=O)CSc2nnc(CNC(=O)c3cccs3)o2)c1C	nt	-4	-4	-1.9	-13	-2.4	-8.6	0.8
CC(Oc1ccccc1)C(=O)NCc1cccnc1 (stereo not drawn)	-7%	-2	-13	nt	3	-5.9	0.1	-0.8
Cc1cccc(NS(=O)(=O)c2cccc3nonc23)c1	-8%	-14	-6	nt	0	-0.4	3.6	0.5
Cc1cc(NS(=O)(=O)c2cc(Cl)sc2Cl)no1	46%	-13	0	2.8	-1	-3.3	-1.8	-1.2
CC1CN(C(c2ccco2)c2sc3ncnn3c2O)CC(C)O1 (stereo not drawn)	7%	10	-8	0.9	-5	5.1	8.5	0.8
N#Cc1nc(COc2ccc(F)cc2)oc1N1CCCC1	22%	0	13	nt	1	-5.6	?	0.8
COC(=O)c1cc2oc(C)cc2n1CC(=O)N(C)c1ccccc1	3%	-1	-7	8.0	nt	-5.7	3.3	0.9
CCC1Oc2ccccc2N(CC(=O)NC2CCCCC2)C1=O (stereo not drawn)	nt	-12	2	1.9	-3	1.7	-0.1	-0.2
Cc1ccc(N(C(=O)CCC(=O)Nc2cc(C)on2)C(C(=O)NC2CCCC2)c2ccncc2)cc1 (stereo not drawn)	4%	2	-7	nt	2	-2.4	-1.7	1.0
O=C(/C=C/c1ccc(OCCCF)cc1)N1CCN(Cc2ccccc2)CC1	-8%	-2	14	3.6	3	0.2	-1.5	1.3
COc1ccc(-n2c(SCC(N)=O)nnc2-c2cccnc2)cc1	nt	21	-7	nt	-3	-0.3	-5.5	-0.7
CCOC(=O)N1CCC(N2CCN(S(=O)(=O)c3ccc([N+](=O)[O-])cc3)CC2)CC1	2%	3	14	9.3	0	0.3	-5.4	-0.9
COC(=O)[C@@]12CCCCN1[C@H](c1ccc(-c3ccc(F)cc3)cc1)[C@@H]1C(=O)N(C)C(=O)[C@@H]12	nt	13	26	-6.5	-4	-11	7.5	-0.3
CCCCC(NC(=O)c1cccc(Br)c1)C(=O)O (stereo not drawn)	1%	9	-3	-6.1	nt	0.6	6.1	-0.5
COc1ccc(C2=C(C#N)C(=O)OC2)cc1	8%	-6	-12	nt	-3	-2.3	-0.2	0.3
Cc1cc(C)c(C(=O)COC(=O)Cn2nc(-c3ccccc3)oc2=O)cc1C	nt	nt	nt	-5.1	-3	-1.6	nt	1.5
Cc1cccc(-c2nc(CS(=O)CC(=O)NCCc3ccc(Cl)cc3)c(C)o2)c1 (stereo not drawn)	7%	-11	22	-0.9	0	1.4	4.2	0.6
CN(c1ccccc1)S(=O)(=O)c1cccc(NC(=O)c2cc3ccccc3oc2=O)c1	nt	-5	0	1.2	1	3.1	-4.2	-0.7
COCCN1CSC(=S)N(Cc2ccco2)C1	22%	3	nt	nt	-6	-5.8	0.8	0.0
O=C(COC(=O)COc1ccccc1)Nc1ccc(Br)cc1Br	-13%	nt	nt	-2.5	0	10	nt	0.2
NC(=O)CSc1nnc(Cc2csc(Nc3ccccc3)n2)n1Cc1ccccc1	-1%	4	-15	-34	-7	5.2	1.8	0.5
O=C(O)C1CCCN(S(=O)(=O)c2ccc(-c3ccc(=O)[nH]n3)s2)C1 (stereo not drawn)	nt	24	-5	-1.2	-6	7.3	5.3	-1.9
O=C(/C=C/c1ccccc1)c1ccccn1	18%	-2	4	nt	-2	-3.4	23*	-5.4
O=C(CSc1ccc(F)cc1)Nc1ccccc1N1CCOCC1	nt	6	10	-1.1	-4	-4.0	4.3	0.5
CCOc1ccc(/C=N/NC(=S)NC2CC3CC2C2C=CCC32)cc1 (stereo not drawn)	nt	-5	22	3.1	1	-3.8	0.5	0.4

Other compounds:
SMILES	Vif A3G	Calb FLC	T cruzi inh	MLL AF4-AF9 inh	Beta apoptosis	LANA-H2A inh	RanGTP-Impb inh	Bfl-1 A1 inh
O=C(COC(=O)c1ccc2ncsc2c1)Nc1ccccc1Cl	nt	nt	nt	-1.3	-10	0.5	nt	-0.2
COc1ccc(N=C2SCC(c3ccc([N+](=O)[O-])cc3)=NN2CCO)cc1	-6%	11	23	nt	5	-5.1	-3.7	-2.3
N#Cc1cc2c(nc1SCc1cccnc1)CCCC2	-18%	59	3	nt	-4	0.4	-1.1	-0.3
O=C(N/N=C/c1ccoc1)c1ccc(Cl)cc1	nt	-2	-3	-0.9	-4	-0.6	-1.0	-1.3
O=C(NCc1ccco1)c1cccc(NS(=O)(=O)c2cccc(F)c2)c1	28%	2	-5	nt	0	1.9	-2.6	0.2
Cc1ccnc(SC2CC(=O)N(c3ccc(Br)cc3)C2=O)n1 (stereo not drawn)	nt	26	0	-2.0	11	0.4	4.2	-2.2
Cc1ccccc1SCC(=O)Nc1cc(C(F)(F)F)ccc1N1CCOCC1	5%	-1	65*	nt	3	6.2	-0.4	0.2
CCOC(=O)CCCCCC(=O)Nc1ccc2c(c1)C(=O)N([C@H](C)CO)C[C@@H](C)[C@H](CN(C)S(=O)(=O)c1cn(C)cn1)O2	nt	nt	nt	-2.5	1	11	nt	1.4
CCc1ccccc1NC(=O)NC1CCCCC1	-1%	-4	3	nt	7	1.0	2.7	-0.1
COc1ccc(/C(C)=N/NC(=O)c2nnn(-c3nonc3N)c2-c2cccs2)cc1OC	nt	-10	1	-2.6	6	0.2	6.2	-1.0
CC(=O)Nc1sc2c(c1C(c1ccncc1)N1CCOCC1)CCCC2 (stereo not drawn)	nt	-3	2	-2.7	4	2.2	-1.1	0.5
COc1ccc(C(=O)OCCN2CCOCC2)cc1	9%	-1	-1	nt	-9	-2.5	3.8	0.1
O=C(c1ccc(Br)cc1)N(Cc1nc2ccccc2c(=O)[nH]1)C1CCCC1	3%	6	7	4.1	-14	3.4	1.0	0.9
CC(=O)NC(Cc1ccccc1C)C(=O)NC1CCN(c2nnnn2-c2ccccc2)CC1 (stereo not drawn)	5%	-4	1	0.1	6	5.6	0.0	0.8
Cc1cccc(-c2nc(CS(=O)CC(=O)NC3CCCC(C)C3C)c(C)o2)c1 (stereo not drawn)	nt	-1	47	-4.2	-4	4.5	?	-0.2
O=C(c1ccc2c(c1)OCO2)N1CCC2(CC1)Oc1ccc(Cl)cc1C(=O)C21CC(c2ccc(Cl)cc2)=NO1 (stereo not drawn)	-2%	1	-12	5.0	nt	nt	-2.4	nt
C=CC[C@@H](CC(=O)N[C@H](CO)Cc1ccccc1)C(=O)N[C@H](C)COC(=O)[C@@H](CC=C)CC(=O)OC(C)(C)C	nt	nt	nt	-4.3	5	-7.0	nt	0.2
Cc1nn(-c2ccccc2)c2nc(C(Cl)(Cl)Cl)[nH]c(=O)c12	4%	-8	4	-14	3	1.1	1.9	0.6
O=C(O)c1cc(NCc2cccs2)ccc1N1CCOCC1	27%	-1	-4	nt	-3	2.3	-0.4	-0.2
CCC1Sc2ccccc2N(CC(=O)NCCC(C)C)C1=O (stereo not drawn)	-1%	0	-2	0.8	-1	0.0	?	0.0
CCC(=O)N1CCN(c2ccc(NC(=O)c3ccc([N+](=O)[O-])o3)cc2)CC1	-7%	?	72*	-0.3	nt	nt	2.3	nt
COc1ccc(NC(=O)C2(S(=O)(=O)c3ccc(C)cc3)CC2)cc1OC	nt	1	0	-1.1	-14	26*	-2.3	1.1
